LASV entry inh: inhibitors of Lassa virus binding or cell entry | Lassa virus pseudotype entry inhibition, cell reporter; control for the full effect not named in the record | Potency, µM (titrated, usually from 37.9 µM), for inactives: at the top dose activity change, negative = inhibition, usual class: inhibitors | actives 1.2% (n = 300,000); active means well fitted inhibition curve with a large enough effect; inconclusive means small, poorly fitted or top-dose-only effect, or effect the other way; inactive means flat fitted curve, though single readings scatter; tested in HEK293 cells; further: on the % scale 0 is the no-effect control and ±100 the full control effect; nearly all actives have a fitted effect of over 50% in size; luciferase read-out
2A StopGo: FMDV 2A StopGo reporter, luciferase signal | Potency, µM (top dose mostly 57.9 µM), for inactives: at the top dose signal change, negative = less light | human cells with a luciferase reporter of 2A StopGo recoding; control for the full effect not named in the record | actives 1.2% (n = 410,000) | AID 1159524; active = well fitted falling curve with a large enough effect; inconclusive = small, poorly fitted or top-dose-only effect; inactive = no such curve, though single readings can be large or run the other way; tested in HEK293T cells; further: on the % scale 0 is the no-effect control and ±100 the full control effect; nearly all actives have a fitted effect of over 45% in size; luciferase light after 4 h
RE007 growth inh: less growth of the S. pombe RE007 Vpr strain | S. pombe RE007 Vpr strain, BacTiter-Glo ATP luminescence, 24 h; control for the full effect not named in the record | Potency, µM (titrated, usually from 92.2 µM), for inactives: at the top dose activity change, negative = less growth | actives 0.21% (n = 360,000); active = well fitted falling curve with a large enough effect; inconclusive = small, poorly fitted or top-dose-only effect; inactive = no such curve, though single readings can be large or run the other way;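 further: on the % scale 0 is the no-effect control and ±100 the full control effect; nearly all actives have a fitted effect of over 50% in size; the assay follows cell death caused by Vpr and the record does not say whether a fall means rescue or toxicity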
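Fission yeast strain RE007, carrying one chromosomally integrated HIV-1 vpr copy, was seeded at OD 0.01 in PMG+AL medium with 23 nL pinned compound. After 24 h at 30 °C and 99% humidity, viability was read by BacTiter-Glo luminescence.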
Cruzain noTriton: cruzain (T. cruzi) inhibition without detergent; P25779; purified cruzain, Z-FR-AMC fluorescence, no detergent; Potency, µM, for the others: max response, negative = inhibition, hits mostly inhibitors; actives 2.3% (n = 200,000); AID 1476; active means well fitted curve in the direction sought with a large enough effect; inconclusive means small, poorly fitted or top-dose-only effect, or another doubt; inactive means no such curve, though single readings can be large; an effect the other way counts as inactive or inconclusive;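 further: plate controls were enzyme without inhibitor for no effect and buffer without enzyme for full effect; nearly all actives have a fitted effect of over 40% in size; top concentration of the series not given in the record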
Target sequence (P25779 123-467 limits assumed): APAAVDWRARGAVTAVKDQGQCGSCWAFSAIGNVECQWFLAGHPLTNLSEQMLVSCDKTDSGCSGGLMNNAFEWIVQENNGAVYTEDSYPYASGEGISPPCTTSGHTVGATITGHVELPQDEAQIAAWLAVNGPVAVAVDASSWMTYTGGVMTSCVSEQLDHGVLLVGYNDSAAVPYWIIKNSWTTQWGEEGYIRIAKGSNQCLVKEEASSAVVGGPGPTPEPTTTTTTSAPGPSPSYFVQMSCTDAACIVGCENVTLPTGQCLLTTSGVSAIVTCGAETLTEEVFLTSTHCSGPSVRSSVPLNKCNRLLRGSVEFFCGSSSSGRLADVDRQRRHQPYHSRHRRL
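Purified cruzain at 1.5 nM, pre-incubated 15 min with compound at room temperature in 100 mM sodium acetate pH 5.5, 5 mM DTT, 0.00005% Triton X-100. Reaction started with 2 uM Z-FR-AMC; AMC fluorescence increase over 60 s gives rate.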
NS1 inh: influenza NS1 inhibition; S. cerevisiae slowed by influenza A NS1, growth recovery by OD600; Potency, µM (highest dose often 46.1 µM), for the others: at the highest dose activity, positive = more growth; actives 0.4% (n = 270,000); further: actives are rising curves; nearly all actives have a fitted effect of over 50% in size
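Compounds were scored for reversing the slow growth caused by influenza A NS1 in S. cerevisiae, measured by optical density at 600 nm. Assay medium contained 2% galactose at pH 6.0; NS1-free yeast of the same strain were the positive control.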
SARS PLpro yeast: inhibitors of SARS-CoV papain-like protease in yeast. S. cerevisiae expressing SARS-CoV PLpro, growth rescue; control for the full effect not named in the record. Potency, µM (doses to about 32.9 µM), without a hit: at the top dose activity, positive = growth rescue. actives 0.19% (n = 330,000). AID 485353; further: 0% is about no effect; nearly all actives have a fitted effect of over 55% in size; growth read by luminescence after 48 h
Cruzain inh Det: cruzain (T. cruzi) inhibition with detergent; Potency, µM, inactives show max response, negative = inhibition, actives largely listed as inhibitors; purified cruzain, Z-FR-AMC fluorescence, 0.01% Triton; P25779; actives 0.43% (n = 200,000); AID 1478; active means well fitted curve in the direction sought with a large enough effect; inconclusive means small, poorly fitted or top-dose-only effect, or another doubt; inactive means no such curve, though single readings can be large; an effect the other way counts as inactive or inconclusive;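 further: plate controls were neutral wells for no effect and buffer without enzyme for full effect; nearly all actives have a fitted effect of over 40% in size; top concentration of the series not given in the record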
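Detergent-containing run (0.01% Triton X-100) in acetate buffer pH 5.5 with 5 mM DTT: enzyme at 1.5 nM final, 15 min compound preincubation at room temperature, then 2 uM Z-FR-AMC substrate. Activity taken as 60 s fluorescence increase at 360/450 nm.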
Marburg entry inh: inhibitors of Marburg virus binding or cell entry; Potency, µM (series often up to 37.8 µM), inactives show at the top dose activity change, negative = inhibition, hits mostly inhibitors; actives 1.8% (n = 300,000); AID 540276; Marburg virus pseudotyped entry inhibition, cell reporter; control for the full effect not named in the record; about a third of the inactives were read at about 46 µM; active = well fitted inhibition curve with a large enough effect; inconclusive = small, poorly fitted or top-dose-only effect, or effect the other way; inactive = flat fitted curve, though single readings scatter; tested in HEK293 cells; about a fifth of its hits are not listed in these tables; further: on the % scale 0 is the no-effect control and ±100 the full control effect; luciferase read-out
* hit, by the source's call; ? = inconclusive; . = no result given; & = joins results of further samples; [ ] = another dose, or the depositor's remark. Unless noted, the call rests on the fitted dose curve; in most records, active means well fitted rising curve with a large enough effect; inconclusive means small, poorly fitted or top-dose-only effect; inactive means no such curve, though single readings can be large or run the other way. Potency means the concentration at half of the fitted maximal effect.

SMILES	LASV entry inh	2A StopGo	RE007 growth inh	Cruzain noTriton	NS1 inh	SARS PLpro yeast	Cruzain inh Det	Marburg entry inh
CN(C)c1ccc(C(O)P(=O)(OC2CCCCC2)OC2CCCCC2)cc1 (stereo not drawn)	?	-1%	5%	.	-31%	-1%	.	?
CN(Cc1ccc(F)cc1)S(=O)(=O)c1nnc(NC(=O)c2ccc(F)cc2)s1	7%[46.1 µM]	-1%	.	16µM*	.	.	-2.7%	.
Cc1cccc(OCc2ccc(C(=O)Nc3cc(C)on3)o2)c1	23%	-2%	8%	.	25%	2%	.	-5%[46.1 µM]
CC(C)CC(=O)N1CCC(O)(CS(=O)(=O)c2ccc(Cl)c(Cl)c2)CC1	-4%	-23%	12%	.	.	0%	.	?
CCCC(=O)N1CCc2cc(OC)c(OC)cc2C1COc1ccc(C(=O)OC)cc1 (stereo not drawn)	?	?	.	?	.	.	7.5%	.
Cc1ccc(OCC(=O)Nc2nonc2-c2ccc(C)c(C)c2)cc1C	-9%[46.1 µM]	-21%	.	-9%	.	.	-2.9%	-5%[46.1 µM]
CN(C(=O)CCc1nnc(Cc2ccc(-c3ccccc3)cc2)o1)C1CCOCC1	10%	-14%	7%	.	-5%	0%	.	5%[46.1 µM]
COc1ccc(C(C)C)cc1S(=O)(=O)N1CCN(c2ccccc2)CC1	.	19%	-3%	.	-8%	-3%	.	.
CC(C)c1ccc(N2C(=O)CSC23C(=O)N(Cc2cccc(F)c2)c2ccccc23)cc1 (stereo not drawn)	-2%[46.1 µM]	?	.	-8%	.	.	-2.3%	.
CCCCNC(=O)Cn1nc(-c2ccc(C)cc2)ccc1=O	.	-20%	10%	.	3%	2%	.	.
CC(C)c1ccc(NC(=O)C2CCCN(S(=O)(=O)c3cccc4nsnc34)C2)cc1 (stereo not drawn)	-1%[46.1 µM]	-18%	.	?	.	.	-3.9%	-4%[46.1 µM]
CCN(CCCNC(=O)c1[nH]c(C)c(C(C)=O)c1C)c1ccccc1	-18%	-23%	0%	-7%	-7%	0%	5.8%	?
O=C(CSc1ccc(-c2ccccn2)nn1)Nc1ccc(F)c(F)c1	?	-28%&-28%	-24%	-7%	-37%	?	-6.8%	-23%&-23%
CCC1C/C(=C/c2ccco2)C(=O)/C(=C/c2ccco2)C1 (stereo not drawn)	-27%	.	.	-17%	7%	-25%	-19%	-40%
COc1cc(NC(=O)c2cccnc2Sc2ccc(C)c(C)c2)cc(OC)c1OC	-12%	-29%	2%	10%	5%	7%	-4.5%	-8%
CCOC(=O)c1c(NC(=O)/C=C/c2ccc(Cl)cc2)sc2c1CCC(C)C2 (stereo not drawn)	9%[46.1 µM]	-13%	.	-3%	.	.	-0.4%	.
COc1cc(C(=O)Nc2cc(C)c(O)c(-c3nc4cc(Cl)ccc4o3)c2)cc(OC)c1OC	-5%[46.1 µM]	-8%	.	23%	.	.	1.0%	?
NC(Cc1ccc2nonc2c1)C(=O)O (stereo not drawn)	14%	6%	3%	-7%	-5%	-1%	11%	-6%
Cc1cccc(NC(=O)c2ccc(F)c(S(=O)(=O)N3CCN(c4ccc(F)cc4)CC3)c2)c1	?	?	.	?	.	.	0.2%	.
Cc1ccnc(NC2CCCCC2)c1	21%	25%	-7%	.	.	2%	.	24%
CCN1CCN(c2c(S(=O)(=O)c3ccc(C)c(C)c3)cnc3ccc(F)cc23)CC1	.	6%&-2%	-17%	-2%	5%	-2%	-1.5%	?
COc1ccc(-c2oc3cc(O)c(OC)c(O)c3c(=O)c2OC)cc1O	?	20%	-25%	.	.	.	.	?
O=C(NCCNC(=O)c1ccccc1O)c1ccccc1O	.	-18%	-14%	.	-19%	-2%	.	.
Cc1nc2ccccn2c1C(=O)N/N=C/c1ccccc1[N+](=O)[O-]	7%	4%	-9%	2%	21%	2%	-1.0%	-3%
Cc1cc(C(=O)NCC(=O)Nc2ccc(F)c(F)c2)c(C)o1	-3%	13%	0%	.	.	8%	.	-6%
The list continues:
SMILES	LASV entry inh	2A StopGo	RE007 growth inh	Cruzain noTriton	NS1 inh	SARS PLpro yeast	Cruzain inh Det	Marburg entry inh
O=C(Nc1nnc(S(=O)(=O)N2CCCC2)s1)c1ccccc1F	-2%[46.1 µM]	36%&24%[activator]	-3%	-9%	-12%	1%	-1.1%	.
O=C(Cn1c2[n+](c3ccc(C(F)(F)F)cc31)CCCCC2)Nc1c(F)cccc1F	-4%	-3%	7%	.	9%	19%	.	28%[46.1 µM]
COc1cc(C(=O)OCc2cc(=O)n3ccsc3n2)cc(OC)c1OC	-25%[46.1 µM]	-25%	.	1%	.	.	-0.7%	.
Cc1ccc(CN2CCN(Cc3c(C)nn(C(C)C)c3C)CC2CCO)o1 (stereo not drawn)	.	-2%	8%	.	-3%	0%	.	.
Fc1ccc(Cn2ccc(-c3cnc(-c4ccccc4)s3)n2)cc1	-26%	-4%	-17%	0%	-87%	3%	0.6%	?
CCOC(=O)c1c(S(=O)(=O)N2CCCC(C(=O)N3CCN(c4cccc(C)c4C)CC3)C2)c(C)n(C)c1C (stereo not drawn)	?	-9%	.	0%	.	.	-0.1%	.
CCOc1ccccc1C(=O)Nc1ccc(S(=O)(=O)N(Cc2ccccc2)c2ccccc2)cc1	11%[46.1 µM]	-29%	.	28%	.	.	4.2%	-1%[46.1 µM]
CCOC(=O)C1CCN(Cc2ccccc2C)CC1	3%	.	4%	14%	8%	-8%	0.7%	-4%
Cn1cccc1C(=O)OCC(=O)NCCc1ccc(S(N)(=O)=O)cc1	?	1%	7%	.	.	0%	.	2%
Cc1c(/C=N/NC(=O)CNc2ccccc2)c2ccccn2c1C(=O)c1ccc(Cl)cc1	?	-15%	-8%	?	?	5%	-4.1%	?
COc1ccccc1CN1CC(C(=O)N2CCC(OC)CC2)CCC1=O (stereo not drawn)	-3%	-1%	39%	.	2%	3%	.	10%
O=C(NCCO)C(c1ccccc1)c1ccccc1	-8%	-8%	19%	-5%	3%	2%	0.8%	3%
S=C(Nc1ccc(Cl)c(Cl)c1)NC1CCCCC1	-19%	19%	9%	-2%	-30%	-33%	-7.6%	?
CS(=O)(=O)c1ncc(Cl)c(C(=O)Nc2c(C(=O)c3ccc(Cl)cc3)oc3ccccc23)n1	1%[46.1 µM]	-18%	.	-5%	.	.	0.9%	-4%[46.1 µM]
Cc1occc1C(=O)N/N=C/C1=C(N2CCOCC2)C(=C\c2ccc(Cl)cc2Cl)/CC1	10%	-8%	8%	25µM*	-4%	-19%	-5.0%	15%
CC(C)CS(=O)(=O)C1=NSC2=NC(=O)/C(=C\c3ccc(OC(=O)c4ccco4)cc3)C(=N)N21	.	-14%	9%	.	-16%	14%	.	.
Cc1ccc(NC(=O)Nc2cc(C)on2)cc1	27%	55%[activator]	11%	.	.	1%	.	29%[46.1 µM]
Cc1ccc(N(C(=O)c2ccco2)C(C(=O)NC2CCCC2)c2cccnc2)cc1 (stereo not drawn)	?	-4%	-28%	.	8%	-7%	.	?
O=C(Nc1nnc(COc2ccccc2)s1)C1CCN(S(=O)(=O)c2ccc(Cl)cc2)CC1	-24%	-5%	0%	-29%	-2%	-3%	-3.1%	?
CC(C)C[C@H](NC(=O)c1nc[nH]c1C(=O)N1CCN(C(=O)OC(C)(C)C)CC1)C(=O)OCc1ccccc1	.	-18%	7%	.	-9%	-1%	.	.
Cc1cc(-c2ccc(NS(=O)(=O)c3ccccc3)c(C)c2)ccc1NS(=O)(=O)c1ccccc1	.	-1%	-5%	.	.	.	.	?
Cc1cc(NC(=O)CCCC(=O)NCc2cccs2)no1	12%	7%	-6%	-2%	-5%	-1%	5.3%	3%
CCOC(=O)c1cnc[nH]c1=O	28%[46.1 µM]	0%	7%	.	.	.	.	11%[46.1 µM]
COC1C(OC(=O)c2ccc(C)[nH]2)C(O)C(Oc2ccc3c(O)c(NC(=O)c4ccc(O)c(CC=C(C)C)c4)c(=O)oc3c2Cl)OC1(C)C (stereo not drawn)	.	40µM*	7%	.	?	1%	.	.
CCCCN(C)c1ncnc2c1cnn2-c1cccc(Cl)c1	?	7%	.	8%	.	.	0.5%	.
(more compounds)
SMILES	LASV entry inh	2A StopGo	RE007 growth inh	Cruzain noTriton	NS1 inh	SARS PLpro yeast	Cruzain inh Det	Marburg entry inh
CCOC(=O)C1CCN(c2cc3c(cc2NC(=O)c2ccccc2)n(C)c(=O)n3C)CC1	.	-24%	-2%	.	1%	1%	.	.
COc1ccc(N(C)C2=NS(=O)(=O)c3ccccc32)cc1	-24%	-5%	2%	-28%	-1%	?	5.6%	-15%
O=C(NCC(=O)N(c1cccnc1)C(C(=O)NC1CCCCC1)c1ccccc1F)c1ccco1 (stereo not drawn)	31%	0%	0%	.	10%	19%	.	9%[46.1 µM]
CC1C(=O)N2CCCc3cc(S(=O)(=O)NCCc4ccccc4)cc1c32 (stereo not drawn)	.	42%[activator]	12%	.	6%	-2%	.	.
CC(C)(C)C(=O)Nc1ccc(Cl)c(-c2nc3ccccc3[nH]2)c1	4%[46.1 µM]	-13%	.	-6%	.	.	-2.0%	-1%[46.1 µM]
Cc1ccc(C(=O)OCC(=O)Nc2ccc(S(N)(=O)=O)cc2)c(O)c1	.	-21%	4%	.	-2%	0%	.	.
Nc1c(N(CCC2=CCCCC2)C(=O)C2CC2)c(=O)[nH]c(=O)n1Cc1ccccc1	?	-30%	14%	.	-8%	-7%	.	?
Cn1c(O)c(Cc2ccc(OCc3ccccc3)cc2)c(=O)n(C)c1=O	.	24%	-22%	.	-35%	1%	.	.
CC(C)CN(C(=O)COC(=O)C12CC3CC(CC(O)(C3)C1)C2)C1CCS(=O)(=O)C1 (stereo not drawn)	24%	0%	22%	10%	3%	-1%	-0.5%	18%
COC(=O)C1CCN(C(=O)CSc2nc3nc(C)cc(C)n3n2)CC1	-5%	-9%	1%	.	.	-6%	.	9%
CCOC(=O)c1c(NC(=S)N2CCOCC2)sc2c1CCN(C(=O)OCC)C2	-26%	?	-12%	.	5%	0%	.	?
CS(=O)(=O)NCCSCc1ccccc1	7%	-20%	-7%	-1%	-3%	-4%	7.3%	-22%[46.1 µM]
CCOC(=O)CNC(=O)c1ccc(C#CC2(O)CCCCC2)cc1	-6%[46.1 µM]	10%	11%	9%	15%	-2%	0.2%	4%

Screening results (PubChem BioAssay)
